Bfl-1 A1 inh: caspase 3/7 activation in MEF A1-2A-BIM cells, primary screen, A1 inhibitor project, cell-based, luminescence, HTS | 330,000 compounds, 0.066% hits | AID 2462, 2010 | caspase activation, % (no concentration beside the values) | Caspase-Glo 3/7 luminescence, 3 h; percent of clofoctol response, vehicle zero;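 active = over half of replicate activation scores above 10%, or exactly half above 10 with the replicate mean above 10; inconclusive = replicate mean below 10 yet half the replicates above 10; inactive = over half of replicates below 10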;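 also: wells of about 30 µL received 50 nL stock; many hits fall short of the cut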
Calb FLC: C. albicans growth inhibition with fluconazole, primary screen, CaCi-2 strain, Alamar Blue fluorescence | C. albicans CaCi-2 (fluconazole-resistant clinical isolate) + fluconazole, 48 h | growth inhibition, % (no concentration beside the values) | 300,000 compounds, 0.57% hits | AID 1979, 2009;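 active = most replicates above 75%; inconclusive = exactly half above 75%; inactive = most below 75%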;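 also: all wells also contain fluconazole at 8 µg/ml as a sub-toxic cotreatment; 0% = median of DMSO wells and 100% = median of geldanamycin control wells; wells of about 8 µL received 7.5 nL stock; the first replicate is given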
rRNA inh HTS: reduced GFP signal of wild-type E. coli, primary screen, bacterial rRNA inhibitor project, GFP/RFP fluorescence, OD600, single point; E. coli WT GFP vs humanized-ribosome RFP mutants, 24 h; stronger effect = lower value; DMSO median 0, no signal -100; GFP signal change (wild-type ribosome), % (concentration not given with the values); 350,000 compounds, 1.6% hits;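 active = significant combined selectivity score with lowered wild-type GFP, culture density cut under 30%, mutant RFP and density less affected; inactive = any of these conditions unmet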; also: one replicate is shown; some compounds called inactive have numbers as strong as hits
LANA-H2B inh: blockers of LANA interaction with H2A/H2B – biochemical, FP readout, HTS, primary screen. Protein LANA1 (Human herpesvirus 8 type P (isolate GK18)), Q9QR71. cell-free LANA-H2A/H2B peptide, fluorescence polarization. inhibition, % (test concentration not listed). 320,000 compounds, 0.6% hits; in the data active = inhibition mostly above about 10%, no sharp cut-off; inactive = mostly below about 6.7%;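 also: stock transfer was 7.5 nL into about 10 µL; 0% = median of vehicle wells and 100% = median of positive control wells; one replicate is shown; the record names a cut of 25% in any replicate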
Target sequence (Q9QR71 whole entry, looked up): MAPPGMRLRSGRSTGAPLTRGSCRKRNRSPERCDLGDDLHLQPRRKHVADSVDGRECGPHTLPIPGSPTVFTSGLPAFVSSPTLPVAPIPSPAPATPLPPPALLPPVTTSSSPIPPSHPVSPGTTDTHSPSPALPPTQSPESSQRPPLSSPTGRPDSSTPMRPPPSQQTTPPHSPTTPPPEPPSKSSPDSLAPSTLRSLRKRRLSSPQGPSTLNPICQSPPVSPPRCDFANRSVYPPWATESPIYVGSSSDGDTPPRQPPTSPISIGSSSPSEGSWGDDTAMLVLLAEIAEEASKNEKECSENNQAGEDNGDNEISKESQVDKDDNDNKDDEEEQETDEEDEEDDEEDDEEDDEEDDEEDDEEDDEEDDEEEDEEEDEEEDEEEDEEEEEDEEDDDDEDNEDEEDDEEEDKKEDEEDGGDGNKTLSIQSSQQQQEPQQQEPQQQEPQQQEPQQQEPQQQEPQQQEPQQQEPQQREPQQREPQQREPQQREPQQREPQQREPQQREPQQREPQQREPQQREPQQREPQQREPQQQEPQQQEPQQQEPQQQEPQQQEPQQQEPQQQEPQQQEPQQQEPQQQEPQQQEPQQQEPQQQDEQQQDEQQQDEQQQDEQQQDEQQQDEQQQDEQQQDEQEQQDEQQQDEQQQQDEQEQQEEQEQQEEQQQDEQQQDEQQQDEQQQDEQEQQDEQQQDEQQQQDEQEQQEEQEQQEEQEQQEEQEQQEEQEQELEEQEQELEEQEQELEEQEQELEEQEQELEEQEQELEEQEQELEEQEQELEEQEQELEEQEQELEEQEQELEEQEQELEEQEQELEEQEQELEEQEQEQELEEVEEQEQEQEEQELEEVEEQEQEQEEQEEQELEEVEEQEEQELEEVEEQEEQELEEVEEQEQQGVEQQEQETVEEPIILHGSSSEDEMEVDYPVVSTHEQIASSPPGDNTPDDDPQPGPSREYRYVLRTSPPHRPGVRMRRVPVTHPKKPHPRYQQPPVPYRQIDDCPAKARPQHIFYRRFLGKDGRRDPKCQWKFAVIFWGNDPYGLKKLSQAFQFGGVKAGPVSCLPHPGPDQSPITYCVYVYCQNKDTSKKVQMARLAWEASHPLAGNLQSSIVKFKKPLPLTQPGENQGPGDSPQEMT
T cruzi repl: inhibitors of intracellular T. cruzi growth, primary screen, luminescence, NIH3T3 host cells. T. cruzi beta-gal in NIH3T3, 90 h. inhibition, % (no concentration beside the values). 300,000 compounds, 1.4% hits. AID 1885, 2009;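 active = mean inhibition across valid replicates above about 55%, limit read from the data; inconclusive = mean below that limit but half or more replicates reach it; inactive = mean below it, under half of replicates reach it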;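 also: signal also drops with host cell toxicity which is not excluded here; 0% = plate median of DMSO wells and 100% = zero luminescence signal; higher percent means less beta-gal luminescence so fewer parasites; stock transfer was 50 nL into about 50 µL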
Beta2AR agonist: beta2AR agonists driving receptor internalization, primary screen, cell-based, FAP fluorogen, flow cytometry; Beta-2 adrenergic receptor (Homo sapiens), P07550; Am2.2-beta2AR cells; reference of the scale not given here; response, % (test concentration not listed); 340,000 compounds, 0.43% hits;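 active = response above a set limit, near 3 SD of response in nonfluorescent compounds, cut at about 42% in these data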;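 also: stock transfer was 100 nL into about 11 µL; a reference agonist was the positive control; negative values mostly stem from fluorescent compounds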
ALR inh: inhibitors of human ALR sulfhydryl oxidase, primary screen, biochemical, H2O2 detection, HRP-luminol luminescence, single point | purified ALR, DTT oxidation | inhibition, % (concentration not given with the values) | 290,000 compounds, 3.8% hits | AID 485317, 2010;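 active = mean and each replicate at 75% or more; inconclusive = only one of the two met; inactive = neither met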;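 also: stock transfer was 7.5 nL into about 7.5 µL; 0% = neutral wells and 100% = wells with inactivated enzyme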
Beta apoptosis: inhibitors of cytokine-induced beta cell apoptosis, primary screen, luminescence | protection from apoptosis, % (test concentration not listed) | INS-1E cytokine-induced death, ATP luminescence, 48 h; percent of positive-control rescue, neutral wells zero | AID 435005, 2010 | 300,000 compounds, 0.8% hits;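 active = all replicates at 75% or more, or half of them and the mean; inconclusive = half reach 75% but not the mean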;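 also: 0% = cytokine-treated negative control wells and 100% = positive control rescue; higher means more ATP so stronger rescue from cytokine killing; wells of about 40 µL received 100 nL stock; the first replicate is given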
rRNA inh HTS OD600: recorded beside rRNA inh HTS, whose call it bears; OD600 change, %; measured here: OD600 growth;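 optical density of the mix in the first replicate; 0 = DMSO median and -100 = no signal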
rRNA inh HTS RFP: also measured in rRNA inh HTS; calls as there; RFP signal change, %; measured here: RFP humanized mutant strains;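 first replicate; 0 = DMSO median and -100 = no signal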
* hit, by the source's call; ? = inconclusive; . = no result given.

SMILES	Bfl-1 A1 inh	Calb FLC	rRNA inh HTS	rRNA inh HTS OD600	rRNA inh HTS RFP	LANA-H2B inh	T cruzi repl	Beta2AR agonist	ALR inh	Beta apoptosis
CC(=O)c1ccc(-n2nnnc2SCC(=O)Nc2sc(C)c(C)c2C#N)cc1	-0.3	-7	0	-5	6.7	-0.1	7	-10	-16	-13
COc1cccc(C=Nc2ccccc2C(=O)Nc2ccccc2)c1O	-0.1	-7	5	10	6.3	2.2	-12	1	-15	5
CO/N=C(\N)c1nonc1N	0.8	-5	1	7	-2.3	-1.4	-19	-4	-3	-4
Cc1cc(Cl)ccc1OCC(=O)N/N=C/c1ccncc1	0.2	22	-3	-9	-2.2	0.2	3	-11	.	-6
COc1ccc(/C(C)=N/NC(=O)CNC(=O)c2cccnc2)cc1	0.4	-3	12	-2	1.8	-1.0	9	-3	-4	-8
CCNC(=O)/C(=C/c1ccco1)NC(=O)/C=C/c1ccccc1	0.3	20	.	.	.	-0.4	-5	11	-19	-7
CC(CCc1ccccc1)NC(=O)C1CCCN(C(=O)c2cc3sccc3n2C)C1 (centres undefined)	-0.5	23	-27	-26	-1.9	0.7	-19	-12	-10	10
CCOc1ccc(N2C(=O)CC(NCCc3ccc(S(N)(=O)=O)cc3)C2=O)cc1 (centres undefined)	-0.2	1	.	.	.	-2.7	-19	-8	.	-11
CCOC(=O)Nc1sc(NS(=O)(=O)c2ccc(C)cc2)nc1C	0.4	0	8	-2	2.2	0.4	-9	15	30	-12
COC(=O)c1ccc(NC(=O)CSc2nnc(C3CC3)n2C)cc1	-0.1	-13	2	5	0.0	-2.0	-1	-15	.	-9
C[C@H](CCC(=O)NCC(=O)O)[C@H]1CC[C@H]2C3[C@H](O)C[C@@H]4C[C@H](O)CC[C@]4(C)[C@H]3C[C@H](O)[C@]12C (some centres undefined)	-0.5	.	.	.	.	-4.6	9	0	-16	-5
CC(C)(C)c1nnc(NC(=O)c2cccnc2Cl)s1	0.0	-13	-5	-17	-4.0	-2.8	7	-4	-6	5
CC(Oc1ccccc1)C(=O)N1CCN=C1SCc1ccccc1F (centres undefined)	0.2	16	-15	-27	-6.1	3.6	-6	-3	?	-7
COc1ccc(CCN2CC(C(=O)NCCc3ccccn3)CCC2=O)cc1 (centres undefined)	-0.2	4	16	15	1.7	1.7	-11	-4	-2	.
CN(C)C(=O)c1ccc(NC(=O)CN2C(=O)NC3(CCCc4ccccc43)C2=O)cc1 (centres undefined)	0.4	-1	-2	4	-4.4	-2.6	-19	-2	-14	.
COc1ccc(OC)c(C(=O)N/N=C/c2ccccn2)c1	-0.2	-6	3	9	-0.9	-0.3	-14	2	2	-4
C#CCOc1c(Cl)cc(/C=N/NC(N)=S)cc1OCC	-0.2	-1	-22	-42	6.4	-26	53	15	-1	-11
CCOC(=O)[C@@H]1[C@H]2COc3cc(OC)ccc3[C@@H]2N2C(=O)N(c3ccc(C(F)(F)F)cc3)C(=O)[C@@]12C	-0.4	16	14	8	4.8	7.3	-6	-7	-17	-8
COCc1cc(C)n(CC(=O)Nc2c(C)cccc2C)c(=O)c1C#N	0.6	1	14	12	0.2	0.2	-5	-3	.	-4
CC(Sc1nc(N2CCCCC2)c2c(c1C#N)CCCC2)C(=O)O (centres undefined)	0.9	26	.	.	.	-0.8	39	0	9	1
COc1ccccc1N(CC(=O)NC(C)C)S(=O)(=O)c1cccs1	-0.1	6	-23	-24	20	2.4	0	2	9	-10
CC(=O)NS(=O)(=O)c1ccc(NC(=S)NC(=O)C(C)C)cc1	-0.4	0	.	.	.	.	-2	3	.	-10
O=C(COc1ccc(S(=O)(=O)Nc2ccccc2)cc1)NCc1cccnc1	0.0	7	.	.	.	0.3	0	4	7	1
Cc1ccc(CCN2CC(C(=O)NCCN3CCOCC3)CC2=O)cc1 (centres undefined)	0.2	-4	.	.	.	4.0	-1	.	1	-6
Cc1cc(NC(=O)c2ccc3nc(C)sc3c2)no1	-2.1	0	.	.	.	-2.2	-18	-8	1	1
COc1ccc(CN(CCN(C)C)Cc2ccccc2)c(OC)c1	0.6	-22	.	.	.	-3.1	35	2	1	-1
COc1ccccc1C(=O)N/C(=C\c1ccc(Br)cc1)C(=O)NCCC(=O)O	0.0	-1	8	7	-2.3	-5.6	-10	-7	-13	1
Cc1ccccc1C(=O)NCc1ccncc1	0.0	16	.	.	.	-2.9	-4	0	0	5
Cc1sc2ncn(CC(=O)N3CCN(c4ccc(F)cc4)CC3)c(=O)c2c1S(=O)(=O)N1CCOCC1	-0.2	8	6	-2	1.5	0.7	5	4	.	1
CCOC(=O)c1c(N2C(=O)CC(Sc3ccccc3C(=O)O)C2=O)sc2c1CCCC2 (centres undefined)	0.7	15	-11	-19	1.8	-1.4	-37	-6	22	-3
CC(=O)Nc1ccc(S(=O)(=O)N2CCN(S(=O)(=O)N3CCOCC3)CC2)cc1	0.5	18	4	14	-1.2	-18	4	-5	.	-1
CN(Cc1ccccc1)C(=O)c1[nH]cnc1C(=O)NCc1ccccc1	1.3	.	-28*	-14*	1.2*	-2.2	.	-6	47	-4
O=C(O)c1ccc(NC(=O)c2cccc(NC(=O)c3cccs3)c2)cc1	0.2	8	.	.	.	-4.6	7	-12	-9	2
O=C(c1ccc2c(c1)[nH]c(=S)n1c3ccccc3nc21)N1CCN(c2cccc(Cl)c2)CC1	1.0	18	-3	-1	1.9	0.2	11	6	-2	82*
CCC1CCCCN1CCCNC(=O)c1cc2c(=O)[nH]c3ccccc3c2n1C (centres undefined)	-0.1	5	4	12	-0.3	1.9	25	-3	-3	0
O=C(Nc1ccc2c(c1)CCC2)c1cccs1	-7.4	4	-24	-24	-6.7	0.2	-9	-4	40	4
CC1CCCC(C(=O)O)N1C(=O)CCS (centres undefined)	0.7	6	.	.	.	-2.2	-2	-5	-33	5
CC1=C(C(=O)NC2CCCc3c2cnn3-c2cc(F)cc(F)c2)OCCO1 (centres undefined)	-0.9	?	11	4	7.1	3.1	8	-1	.	-3
Cc1ccccc1-n1c(O)c(C=NC2CCS(=O)(=O)C2)c2ccccc2c1=O (centres undefined)	0.4	-2	4	-2	-0.4	-1.7	.	-16	-8	-1
CC1(C)C(=O)C2(CCCCC2)C(=O)OC1c1cccs1 (centres undefined)	-0.7	-13	.	.	.	3.4	-17	-3	0	-8
CC(NC(=O)CN1C(=O)NC(C)(c2cccc3ccccc23)C1=O)c1ccccc1 (centres undefined)	0.8	-7	-6	0	-2.3	8.3	-8	-5	.	-7
CCCCNc1c(C(=O)OCC)c(C)nc2c1cnn2CC	-3.1	6	0	-3	-0.6	-4.0	23	-16	3	.
COc1ccc2[nH]cc(C(=O)CN3CCCC(C)(C)C3)c2c1	-0.5	-6	0	0	-9.7	-1.2	-2	-2	-3	-2
CC(C)=CCCC1=CCC2C(=O)NNC(=O)C2C1 (centres undefined)	0.6	-5	.	.	.	5.7	3	5	-3	-8
O=C(Nc1ccc2c(c1)OCO2)c1cc(-c2ccc(O)cc2)on1	-3.3	-11	-4	8	-2.4	0.1	55*	10	-3	.
COc1ccc(NC(=O)CN2CCCC2)cc1	0.5	3	-2	2	-2.0	1.2	-6	-1	4	-3
CN(CCOC(=O)C1c2ccccc2Oc2ccccc21)C(C)(C)C	1.2	6	.	.	.	3.5	-6	3	-1	-2
CC1(C)CC(=O)C2=C(C1)N(c1ccc(F)cc1)C(=O)CC2c1ccsc1 (centres undefined)	-0.1	5	-10	-24	-7.5	3.9	11	13	.	0
CN(C)S(=O)(=O)c1cccc(-c2cn3cc(Cl)ccc3n2)c1	0.0	3	.	.	.	1.3	.	-24	98*	-2
COc1ccc(C(C(=O)NCCC(C)C)N(CCO)C(=O)c2snc(C(N)=O)c2N)cc1 (centres undefined)	-0.6	-8	15	8	6.2	23*	6	4	-10	2
COC(=O)c1ccc(C(=O)OC)c(NC(=O)CN(C)Cc2ccc(Cl)c(Cl)c2)c1	0.9	-10	.	.	.	-0.9	7	0	-5	8
COc1ccccc1NC(=S)NNC(=O)c1c(Cl)c(C)nn1C	0.9	12	.	.	.	-0.4	13	11	86*	4
COc1ccc(C(=O)O)cc1S(=O)(=O)NCCN(C)C	0.4	2	4	5	-2.7	2.1	-8	-6	.	-3
O=C1CCN(C(=S)NCc2ccccc2)CC1	1.4	-1	8	5	-16	-0.6	-5	-3	.	1
CCN(CC)CCNC(=O)CNC(=O)c1nn(-c2ccc(OC)cc2)c(=O)c2ccccc12	-0.3	4	-4	7	-2.2	-0.5	-4	0	-11	-1
OC1(c2cccc(C(F)(F)F)c2)CCNCC1	-0.4	1	.	.	.	1.4	-4	1	-5	-8
Cc1ccc(C(=O)NC(=S)NCCN2CCOCC2)cc1	-1.7	10	.	.	.	0.0	13	-1	63	-6
O=C(O)/C=C/C(=O)N1CCN(S(=O)(=O)c2cc(C(F)(F)F)ccc2Cl)CC1	-0.1	2	12	0	-3.2	-2.6	-12	4	0	-7
CC(C)C(=O)Nc1cccc(NC(=S)NC(=O)c2ccc3c(c2)OCO3)c1	0.3	-4	-3	11	-2.0	-1.0	5	-1	-3	-3
O=C(CCCc1nc(-c2ccccc2Cl)no1)N1CCOCC1	-0.2	-1	7	8	-1.2	5.1	-11	10	-14	-4

Retrieved by structure from the entries so far (two):
SMILES	Bfl-1 A1 inh	Calb FLC	rRNA inh HTS	rRNA inh HTS OD600	rRNA inh HTS RFP	LANA-H2B inh	T cruzi repl	Beta2AR agonist	ALR inh	Beta apoptosis
CN(Cc1ccccc1)C(=O)c1[nH]cnc1C(=O)NCc1ccccc1	1.3	.	-28*	-14*	1.2*	-2.2	.	-6	47	-4
CN(CCOC(=O)C1c2ccccc2Oc2ccccc21)C(C)(C)C	1.2	6	.	.	.	3.5	-6	3	-1	-2

Continuation.
SMILES	Bfl-1 A1 inh	Calb FLC	rRNA inh HTS	rRNA inh HTS OD600	rRNA inh HTS RFP	LANA-H2B inh	T cruzi repl	Beta2AR agonist	ALR inh	Beta apoptosis
Cc1onc(-c2ccccc2)c1-c1nc2cc(Cl)ccc2c(=O)o1	0.0	-14	-27	-27	2.4	0.1	2	23	.	.
Cc1ccc(NC(=O)Cn2c(O)c(N=NC(N)=S)c3ccccc32)cc1	-0.6	-13	2	8	-1.2	-4.8	-20	-8	-9	19
O=C(Oc1ccc(OC(=O)c2ccco2)c(S(=O)(=O)c2ccc(Cl)cc2)c1)c1ccco1	0.2	6	.	.	.	-4.2	8	3	49	-13
Cc1ccc(S(=O)(=O)NCC(=O)NCC(=O)N2CCN(c3ncccn3)CC2)cc1C	-0.4	9	-1	6	-1.1	4.0	-6	-6	.	1
O=C(COC(=O)c1nc(Cl)ccc1Cl)NCc1ccccc1	0.7	9	0	0	-1.1	14*	-8	-4	-21	6

Bioassay records from PubChem BioAssay.

This is a subset; rates above refer to the full screens.
